Vaccinia stage: blocks a specific stage of Vaccinia orthopoxvirus infection, primary screen, cell-based, single point; Vaccinia-infected cells, mCherry/Venus stage reporter fluorescence; active compounds read low; some inactives read as strong as hits; AID 1053133, 2014; 0.01% of 89,000 active; activity change (mCherry), % (test concentration not listed);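 active = mCherry past -33% and 40 or more points under the early reporter, replicates agreeing; inconclusive = past -33% without that gap or agreement; tested in A549 cells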;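 also: scaled between vehicle wells and reference inhibitor wells; 23 nL library stock went into each well; one replicate is shown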
Vaccinia stage Venus: also measured in Vaccinia stage; calls as there; activity change (Venus), %; measured here: Venus reporter, other viral stage;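 negative = less Venus signal; first of two replicates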
Numbers without * were called inactive; ? = inconclusive; · = no result given; & = joins results of further samples. Not all compounds are listed; the hit share may differ from the screen's.

SMILES	Vaccinia stage	Vaccinia stage Venus
Cc1ccc(S(=O)(=O)N(C)C[C@@H]2Oc3ccc(NC(=O)CCCCCC(=O)Nc4ccccc4N)cc3C(=O)N([C@H](C)CO)C[C@H]2C)cc1	-5.1	6.9
C[C@H](CO)N1C[C@H](C)[C@H](CN(C)C(=O)CC2CC2)Oc2ncc(C#C[C@@H](C)O)cc2C1=O	2.9	-0.8
COc1ccc(S(=O)(=O)Nc2ccc3c(c2)C(=O)N([C@H](C)CO)C[C@@H](C)[C@H](CN(C)Cc2ccc(C(F)(F)F)cc2)OCCCC[C@H](C)O3)cc1	?	·
CCCNC(=O)[C@@H]1[C@@H](CO)[C@@H]2Cn3c(cccc3=O)[C@@H]2N1C	8.8	-3.8
CO[C@@H]1CN(C)C(=O)c2ccc(NC(=O)Nc3cc(F)ccc3F)cc2OC[C@H](C)N(C)C[C@@H]1C	-18.7	-16.9
C[C@@H]1CN([C@@H](C)CO)C(=O)c2cc(NC(=O)Cc3cn(C)c4ccccc34)ccc2O[C@@H]1CN(C)C	-5.0	-9.9
C[C@@H]1CN([C@@H](C)CO)C(=O)c2cccc(N(C)C)c2O[C@@H]1CN(C)S(=O)(=O)c1ccc(F)cc1	-1.2	-11.9
CN1C(=O)c2cc(NC(=O)c3ccc(F)cc3)ccc2OC[C@H]2O[C@@H](CC(=O)NCC3CCCCC3)CC[C@H]21	?	·
C/C=C/c1ccc([C@@H]2[C@H]3CN(C(=O)Nc4cccc(OC)c4)CC(=O)N3[C@H]2CO)cc1	?	·
N#C[C@H]1N[C@H](CO)[C@H]1c1ccc(C#Cc2ccccc2F)cc1	0.3	1.4
CCNC(=O)[C@@H]1[C@@H](CO)[C@@H]2Cn3c(ccc(-c4ccc(F)cc4)c3=O)[C@@H]2N1C	14.7	9.3
COc1ccccc1NC(=O)N(C)C[C@H]1Oc2ncc(C#CC(C)C)cc2C(=O)N([C@H](C)CO)C[C@H]1C	-3.4	-6.9
Cc1noc(C)c1NC(=O)Nc1ccc2c(c1)C(=O)N([C@H](C)CO)C[C@H](C)[C@@H](CN(C)C(=O)NC(C)C)OCCCC[C@H](C)O2	19.3	3.0
COCC(=O)N(C)C[C@H]1Oc2cc(-c3ccc(C)cc3)ccc2S(=O)(=O)N([C@H](C)CO)C[C@@H]1C	-9.2	-8.9
COc1ccccc1-c1ccccc1[C@@H]1[C@@H](C#N)N(C(=O)C2CC2)[C@H]1CO	7.9	3.7
Cc1ccc(S(=O)(=O)Nc2ccc3c(c2)C(=O)N([C@@H](C)CO)C[C@H](C)[C@@H](CN(C)Cc2ccc(C(=O)O)cc2)O3)cc1	24.5	5.7
C[C@H]1CN([C@@H](C)CO)C(=O)c2cc(NC(=O)C3CC3)ccc2O[C@H]1CN(C)C(=O)NC1CCCCC1	1.6	2.7
O=C(N[C@H]1CC[C@H](CCNS(=O)(=O)c2ccc(F)cc2)O[C@@H]1CO)C1CCCC1	-3.2	4.5
C[C@H]1CN([C@@H](C)CO)C(=O)c2cc(N(C)C)ccc2O[C@@H]1CN(C)C(=O)Nc1ccc(F)cc1	3.8	12.8
C[C@H]1CN([C@@H](C)CO)C(=O)CCCn2nncc2CO[C@H]1CN(C)S(=O)(=O)c1cccc(F)c1	3.1&14.6	10.1&13.3
C[C@@H]1CN([C@H](C)CO)C(=O)c2cc(-c3ccccc3F)cnc2O[C@@H]1CN(C)Cc1cccc(C(=O)O)c1	23.6	12.4
COc1ccc(NC(=O)N(C)C[C@@H]2OCCCC[C@@H](C)Oc3ccc(NS(=O)(=O)c4ccccc4)cc3C(=O)N([C@@H](C)CO)C[C@H]2C)cc1	2.9	0.5
CCNC(=O)C[C@@H]1CC[C@H]2[C@@H](COC[C@H](O)CN2C(=O)Nc2ccc3c(c2)OCO3)O1	40.0	21.3
CCCN1[C@@H]2Cn3c(ccc(-c4cccnc4)c3=O)[C@H]1[C@@H](C(=O)NC1CCCC1)[C@@H]2CO	12.4	14.1
O=C(c1ccc(F)cc1)N1CCCCN2[C@H](CO)[C@H](c3ccc(-c4ccc(F)cc4)cc3)[C@H]2C1	?	·
C[C@H]1CN([C@@H](C)CO)C(=O)c2cc(C#Cc3ccc(F)cc3)cnc2O[C@H]1CN(C)CC1CCOCC1	-12.1	-2.4
C[C@H]1CN([C@@H](C)CO)S(=O)(=O)c2ccc(C#CC(C)(C)O)cc2O[C@@H]1CN(C)C(=O)CN(C)C	-4.1	-8.2
N#C[C@H]1[C@@H](c2ccccc2)[C@H](CO)N1S(=O)(=O)c1ccc(-c2ccccc2)cc1	-20.4	-16.7
COc1ccc(NC(=O)Nc2ccc3c(c2)CC(=O)N([C@@H](C)CO)C[C@H](C)[C@@H](CN(C)S(=O)(=O)c2ccc(Cl)cc2)O3)cc1	-0.8	-3.7
O=C(c1ccccn1)N1CC(=O)N2[C@H](CO)[C@@H](c3ccc(C#Cc4ccccc4)cc3)[C@@H]2C1	?	·
COCC(=O)N(C)C[C@@H]1Oc2cc(C3=CCCC3)ccc2S(=O)(=O)N([C@@H](C)CO)C[C@H]1C	12.0	4.3
CCNC(=O)[C@@H]1[C@@H](CO)[C@@H]2Cn3c(ccc(-c4ccc(F)cc4)c3=O)[C@H]1N2C(=O)C1CC1	-7.8	3.9
COc1cccc(NC(=O)N2CC3(C2)[C@H](c2ccccc2)[C@@H](CO)N3C(=O)C2CCCC2)c1	-1.8	7.5
CCCNC(=O)N(C)C[C@@H]1Oc2cc(-c3ccncc3)ccc2S(=O)(=O)N([C@@H](C)CO)C[C@@H]1C	20.2	17.3
CCCC(=O)N1CCC2(CC1)CN(C(=O)CC1CC1)[C@H](CO)c1c2c2ccc(OC)cc2n1C	-2.3	-7.9
O=C(O)[C@H]1[C@H](CO)[C@H]2Cn3c(ccc(-c4ccccc4F)c3=O)[C@@H]1N2C(=O)c1cccnc1	10.6	8.3
CO[C@@H]1CN(C)C(=O)c2ccc(NS(=O)(=O)c3ccc(C)cc3)cc2OC[C@H](C)N(C)C[C@H]1C	5.3	1.5
COc1ccc(CN(C)C[C@@H]2OCCCC[C@H](C)Oc3ccc(NC(=O)NC4CCCCC4)cc3C(=O)N([C@@H](C)CO)C[C@@H]2C)cc1	?	·
CCCNC(=O)N1CC2(C1)[C@H](c1ccccc1)[C@@H](CO)N2CC1CC1	3.4	2.5
CN(C)C(=O)c1ccc(-c2ccccc2[C@H]2[C@@H](C#N)N(C(=O)C3CC3)[C@@H]2CO)cc1	13.7	9.8
C[C@@H]1CN([C@H](C)CO)S(=O)(=O)c2ccc(C3=CCCC3)cc2O[C@@H]1CN(C)CC1CCOCC1	-4.5	-5.2
C[C@H](CO)N1C[C@H](C)[C@H](CN(C)C(=O)Nc2cccc3ccccc23)Oc2c(NS(=O)(=O)c3ccccc3)cccc2C1=O	14.0	12.0
C[C@H]1CN([C@@H](C)CO)C(=O)c2cc(C#Cc3ccccn3)cnc2O[C@@H]1CN(C)C(=O)c1ccccn1	17.7	12.6
C[C@H]1CN([C@@H](C)CO)C(=O)c2cc(C3=CCCCC3)cnc2O[C@@H]1CN(C)Cc1ccccc1F	-30.9	-36.0
O=C(N[C@H]1CC[C@H](CCNS(=O)(=O)c2cccc(Cl)c2)O[C@H]1CO)c1ccccc1	-1.8	-2.5

Exported with two lines to a compound: nine of the compounds above
Results follow in this order: Vaccinia stage	Vaccinia stage Venus
COCC(=O)N(C)C[C@@H]1Oc2cc(C3=CCCC3)ccc2S(=O)(=O)N([C@@H](C)CO)C[C@H]1C
  12.0	4.3
CCNC(=O)[C@@H]1[C@@H](CO)[C@@H]2Cn3c(ccc(-c4ccc(F)cc4)c3=O)[C@H]1N2C(=O)C1CC1
  -7.8	3.9
COc1cccc(NC(=O)N2CC3(C2)[C@H](c2ccccc2)[C@@H](CO)N3C(=O)C2CCCC2)c1
  -1.8	7.5
CCCNC(=O)N(C)C[C@@H]1Oc2cc(-c3ccncc3)ccc2S(=O)(=O)N([C@@H](C)CO)C[C@@H]1C
  20.2	17.3
CCCC(=O)N1CCC2(CC1)CN(C(=O)CC1CC1)[C@H](CO)c1c2c2ccc(OC)cc2n1C
  -2.3	-7.9
O=C(O)[C@H]1[C@H](CO)[C@H]2Cn3c(ccc(-c4ccccc4F)c3=O)[C@@H]1N2C(=O)c1cccnc1
  10.6	8.3
CO[C@@H]1CN(C)C(=O)c2ccc(NS(=O)(=O)c3ccc(C)cc3)cc2OC[C@H](C)N(C)C[C@H]1C
  5.3	1.5
COc1ccc(CN(C)C[C@@H]2OCCCC[C@H](C)Oc3ccc(NC(=O)NC4CCCCC4)cc3C(=O)N([C@@H](C)CO)C[C@@H]2C)cc1
  ?	·
CCCNC(=O)N1CC2(C1)[C@H](c1ccccc1)[C@@H](CO)N2CC1CC1
  3.4	2.5

(further entries)
SMILES	Vaccinia stage	Vaccinia stage Venus
C[C@H](CO)N1C[C@H](C)[C@H](CN(C)CC2CCCCC2)Oc2ccc(NC(=O)Cc3ccccc3)cc2CC1=O	-4.5	4.4
CCC(=O)Nc1ccc2c(c1)C(=O)N(C)[C@@H]1CC[C@@H](CC(=O)NCCCN(C)C)O[C@H]1CO2	0.9	9.3
COCC#Cc1cnc2c(c1)C(=O)N([C@@H](C)CO)C[C@@H](C)[C@@H](CN(C)C(=O)Cc1ccccc1)O2	35.9	15.7
CNC[C@H]1Oc2ccc(NC(=O)Nc3c(C)noc3C)cc2C(=O)N([C@@H](C)CO)C[C@H]1C	13.0	6.4
CO[C@@H]1CN(C)C(=O)c2ccc(NC(C)=O)cc2OC[C@H](C)N(C(=O)c2cnccn2)C[C@@H]1C	15.6	7.5
Cc1noc(C)c1NC(=O)Nc1ccc2c(c1)C(=O)N([C@H](C)CO)C[C@H](C)[C@@H](CN(C)C(=O)Nc1ccc(C(F)(F)F)cc1)OCCCC[C@@H](C)O2	18.0	17.4
CO[C@H](CN(C)S(=O)(=O)c1ccccc1)[C@H](C)CN(C(=O)Nc1ccccc1F)[C@H](C)CO	7.1	5.1
COCc1cn(CC[C@@H]2CC[C@@H](NC(=O)Nc3ccc4c(c3)OCO4)[C@@H](CO)O2)nn1	15.3	13.4
N#C[C@H]1N[C@H](CO)[C@H]1c1ccc(C#Cc2ccc(F)cc2)cc1	-3.6	-4.1
COCCOC(=O)N1C(=O)[C@@]2(c3cc(C#CCNC(N)=O)ccc31)[C@H](C(N)=O)[C@H]1C(=O)O[C@H](c3ccccc3)[C@H](c3ccccc3)N1[C@@H]2c1ccccc1OCCO	14.6	11.3
Cc1ccc(S(=O)(=O)N(C)C[C@@H]2Oc3c(NC(=O)C4CCOCC4)cccc3C(=O)N([C@@H](C)CO)C[C@@H]2C)cc1	9.6	3.5
O=C(Cc1ccncc1)Nc1ccc2c(c1)[C@@H]1C[C@@H](CC(=O)NC3CCCC3)O[C@H](CO)[C@@H]1O2	2.3	0.8
C[C@H](CO)N1C[C@H](C)[C@H](CN(C)C)Oc2ccc(NS(=O)(=O)c3cccs3)cc2CC1=O	12.8	14.4
CO[C@H](CN(C)C(=O)c1ccccc1F)[C@H](C)CN([C@H](C)CO)S(=O)(=O)c1ccc(C)cc1	8.0	13.5
COc1ccc(S(=O)(=O)N(C)C[C@@H]2Oc3ccc(NC(=O)CCN4CCOCC4)cc3C(=O)N([C@H](C)CO)C[C@@H]2C)cc1	19.5	4.7
COc1cccc(-c2ccc3c(c2)[C@H]2[C@H](CCN2C(=O)Cc2ccncc2)[C@H](CO)N3C)c1	-15.9	-8.3
CN1C(=O)c2cc(NC(=O)c3ccc(C(F)(F)F)cc3)ccc2OC[C@@H]2O[C@H](CC(=O)NCc3ccc4c(c3)OCO4)CC[C@H]21	?	·
O=C(c1ccccc1)N1[C@H](CO)[C@@H](c2ccccc2)C12CN(Cc1nccs1)C2	9.6	8.3
COc1ccc(CN(C)C[C@H]2OCc3cn(nn3)CCCC(=O)N([C@H](C)CO)C[C@H]2C)cc1	-1.4	4.4
C[C@@H]1CN([C@H](C)CO)C(=O)c2cccc(NC(=O)c3cnccn3)c2O[C@@H]1CN(C)Cc1ccc(Cl)c(Cl)c1	-20.7	-14.7
COc1ccc(-c2cnc3c(c2)C(=O)N([C@H](C)CO)C[C@H](C)[C@H](CN(C)C(=O)Nc2ccc(F)cc2)O3)cc1	?	·
Cc1cc(C(=O)Nc2cccc3c2O[C@@H](CN(C)Cc2ccc(C(=O)Nc4ccccc4N)cc2)[C@@H](C)CN([C@H](C)CO)C3=O)n(C)n1	-6.7	3.8
C[C@H]1CCCCO[C@@H](CN(C)Cc2ccc(C(F)(F)F)cc2)[C@@H](C)CN([C@@H](C)CO)C(=O)c2cc(NS(=O)(=O)c3ccccc3)ccc2O1	-27.5	-15.3
CCCNC(=O)[C@@]1(c2ccc([N+](=O)[O-])cc2)CC(=O)N(CC23CC4CC(CC(C4)C2)C3)[C@@H]1c1ccc(CO)cc1I	?	·
C[C@H](CO)N1C[C@H](C)[C@@H](CN(C)C(=O)CN(C)C)Oc2cc(-c3ccccc3)ccc2S1(=O)=O	7.2	2.5
O=C(c1cnccn1)N1CC(=O)N2[C@H](CO)[C@@H](c3ccc(-c4ccccc4)cc3)[C@@H]2C1	15.1	11.1
CC=Cc1ccc2n(c1=O)C[C@@H]1[C@@H](CO)[C@H](C(=O)NC3CCC3)[C@H]2N1S(=O)(=O)c1cn(C)cn1 (mixture of isomers)	-4.0	-5.9
C[C@H]1CN([C@@H](C)CO)C(=O)Cc2cc(NS(=O)(=O)c3cccs3)ccc2O[C@@H]1CN(C)C(=O)Nc1ccc(F)cc1	26.6	15.2
O=C1CN(S(=O)(=O)c2cccc(F)c2)C[C@@H]2[C@@H](c3ccc(-c4ccc(F)cc4)cc3)[C@@H](CO)N12	-12.0	-9.2
C[C@H]1CN([C@@H](C)CO)C(=O)c2cc(NC(=O)CCN3CCOCC3)ccc2O[C@@H]1CN(C)Cc1ccc(-c2ccccc2)cc1	-23.8	-19.1
O=C1CN(S(=O)(=O)Cc2ccccc2)C[C@H]2[C@@H](c3ccc(C#Cc4ccccc4)cc3)[C@H](CO)N12	?	·

Source: PubChem
